# D2 potentiator: Beta-Arrestin HTS for Positive Allosteric Modulators of the Human D2 Dopamine Receptor: Potentiators | D(2) dopamine receptor (Homo sapiens), P14416 | DiscoveRx D2 beta-arrestin cells, luminescence, 90 min; 100% = 57 uM dopamine signal | hit rate 0.23% among 360,000 | potentiation, % (test concentration not listed) | AID 624464, 2012; active = potentiation of 50% or more; inconclusive = 30% to 50%; inactive = 30% or less;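 further: compound concentration not given in the record; tested on top of an EC20 dose of dopamine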
#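 PathHunter beta-arrestin assay in DiscoveRx D2 cells. Compounds were added with an EC20 of dopamine (50 nM final) for 90 min at 37 deg C. Luminescence was read 1 h after detection reagent, with 57 uM dopamine as the EC100 control.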
# TRPML1 blocker: qHTS for Inhibitors of the Human Mucolipin Transient Receptor Potential 1 (TRPML1); Mucolipin-1 (Homo sapiens), Q9GZU1; TRPML1-inducible cells, Ca2+ dye fluorescence, FDSS; stronger effect = lower value; inhibition of EC80 agonist-evoked calcium signal; activity change, negative = inhibition, % (no concentration beside the values); hit rate 0.02% among 390,000; in the data active means activity change below about -50%; inconclusive means about -30% to -50%; inactive means above about -30%;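 further: stimulus is agonist 54-4 at its EC80 concentration; on the % scale 0 is the no-effect control and ±100 the full control effect; compound concentration not given in the record; the text of the record puts the active cut at -80%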
#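 Calcium fluorescence in TRPML1-DL cells induced overnight with Tet: a 110 s read after compound pin addition, then a 110 s antagonist read after challenge with 54-4 at 4 uM final (EC80).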
# Six1-Eya2 inh: qHTS Assay for Inhibitors of the Six1/Eya2 Interaction; Homeobox protein SIX1 (Homo sapiens) + Protein phosphatase EYA2 (Homo sapiens), …; AlphaScreen GST-Six1/His-Eya2 binding, biochemical; stronger effect = lower value; control for the full effect not named in the record; activity change, % (concentration not given with the values); hit rate 0.56% among 360,000; AID 651725, 2012; in the data active = activity change below about -65%; inconclusive = about -30% to -65%; inactive = above about -30%; further: on the % scale 0 is the no-effect control and ±100 the full control effect
# Target sequence (O00167 whole entry, looked up): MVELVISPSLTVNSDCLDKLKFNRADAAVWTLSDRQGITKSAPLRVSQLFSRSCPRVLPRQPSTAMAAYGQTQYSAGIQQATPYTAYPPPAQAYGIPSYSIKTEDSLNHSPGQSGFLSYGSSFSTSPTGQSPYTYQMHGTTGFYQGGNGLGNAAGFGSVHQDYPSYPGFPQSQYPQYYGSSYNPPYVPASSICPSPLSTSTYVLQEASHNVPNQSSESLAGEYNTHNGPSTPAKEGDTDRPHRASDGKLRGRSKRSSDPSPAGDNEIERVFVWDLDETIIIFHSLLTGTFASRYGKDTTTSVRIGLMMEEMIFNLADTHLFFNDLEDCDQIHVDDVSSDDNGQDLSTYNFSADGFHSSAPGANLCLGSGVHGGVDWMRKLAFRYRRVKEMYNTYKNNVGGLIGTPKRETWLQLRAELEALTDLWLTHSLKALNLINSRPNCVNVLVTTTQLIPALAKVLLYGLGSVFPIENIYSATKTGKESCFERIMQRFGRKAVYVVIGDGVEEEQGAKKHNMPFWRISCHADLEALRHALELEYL
# Target sequence (Q15475 whole entry, looked up): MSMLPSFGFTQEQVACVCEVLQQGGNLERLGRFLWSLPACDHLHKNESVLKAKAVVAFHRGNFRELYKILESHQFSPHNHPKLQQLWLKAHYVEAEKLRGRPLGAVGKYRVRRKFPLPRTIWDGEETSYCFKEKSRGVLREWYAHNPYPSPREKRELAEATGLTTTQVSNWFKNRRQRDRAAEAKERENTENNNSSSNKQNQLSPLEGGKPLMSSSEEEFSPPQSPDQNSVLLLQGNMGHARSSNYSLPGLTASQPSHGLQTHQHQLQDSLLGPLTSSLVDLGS
#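 Compounds are tested against tagged Six1 and Eya2 proteins bridged by glutathione donor and nickel acceptor beads; after a one-hour incubation at 37 °C without light, AlphaScreen emission is recorded.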
# TRPML1 agonist: qHTS for Agonists of the Human Mucolipin Transient Receptor Potential 1 (TRPML1) | Mucolipin-1 (Homo sapiens), Q9GZU1 | TRPML1-expressing cells, Ca2+ dye fluorescence, FDSS; host cell line not named in the record; reference of the full effect not given here | activation, % (test concentration not listed) | hit rate 0.12% among 410,000; in the data active = activation above about 50%; inconclusive = about 30% to 50%; inactive = below about 30%; further: 0% is about no effect; the text of the record puts the active cut at 80%
#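 Kinetic FDSS Ca2+ read in Tet-induced TRPML1-DL cells (ABD Ca8 dye plus quencher, 45-90 min RT loading): baseline, then compound, then 110 s agonist window; EC80 agonist 54-4 at 4uM final added afterwards for a 110 s antagonist window.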
# D2 ag: Beta-Arrestin HTS for Positive Allosteric Modulators of the Human D2 Dopamine Receptor: Agonists; D(2) dopamine receptor (Homo sapiens), P14416; DiscoveRx PathHunter D2 beta-arrestin, luminescence, 90 min; 100% = 57 uM dopamine signal; activation, % (concentration not given with the values); hit rate 0.084% among 360,000; in the data active = activation above about 40%; inconclusive = about 15% to 40%; inactive = below about 15%; further: compound concentration not given in the record; the text of the record calls up to 30% inactive
#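 DiscoveRx PathHunter D2 beta-arrestin cells (2,100/well) attached overnight, then compound-stimulated 90 min at 37 C in HBSS/10 mM HEPES/0.1% Tween-20 buffer; beta-galactosidase complementation read by luminescence after 1 h at ambient temperature. Dopamine 57 uM final (EC100) as control.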
# PINK1 expr mod: A Quantitative High throughput Screen to Identify Chemical Modulators of PINK1 Expression | hit rate 0.2% among 410,000 | PINK1 immunofluorescence, high-content cytometry, 24 h | Potency, µM (series often up to 76.6 µM), for the others: at the highest dose activation (PINK1 increase), most hits filed as activators; active = well fitted activation curve with a large enough effect; inconclusive = small, poorly fitted or top-dose-only effect; inactive = flat fitted curve, though single readings scatter; cell line not stated here;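 further: potency means the concentration at half of the fitted maximal effect; % of control where 0% means no effect; nearly all actives have a fitted effect of over 65% in size; a mitochondrial uncoupler was the plate control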
#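 PINK1 protein, normally rapidly degraded, was detected by immunofluorescence after 24 hour compound treatment of a stable cell line. Titration data (5 concentrations) came from laser-scanning cytometry, with CCCP-treated wells as controls.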
# * = called active by the depositor; ? = inconclusive; nt = no result given; [ ] = another dose, or the depositor's remark. Random draw from the library. About 1% of those tested had a hit in this group.
# Below each SMILES: Six1-Eya2 inh, TRPML1 blocker, D2 ag, PINK1 expr mod, TRPML1 agonist, D2 potentiator
COc1cc(/C=N/NC(=O)C(N)=O)ccc1OC(=O)c1cccs1
    3, -5, -2.3, 4.0%, 0.3, -2
COCCn1c(N)c(C(=O)Nc2sc3c(c2C(=O)OC)CCCC3)c2nc3ccccc3nc21
    -21, 2, -0.8, 0.2%, -0.3, -5
Cc1ccc(C)c(C(=O)N2CCC(c3nc4c(nnn4Cc4ccccc4)c(=O)[nH]3)CC2)c1
    nt, 3, nt, 0.7%, 1.8, nt
Cc1cc(C)n(CC(=O)O)c(=O)c1[N+](=O)[O-]
    -8, 8, 0.8, 1.5%, 1.0, -4
CC(C)C(NC(=O)c1ccc2c(c1)OCO2)C(=O)N/N=C/c1cccs1 (stereo unspecified)
    -4, 25, -0.6, 0.6%, 1.2, -25
c1ccc2cc(CCO[C@H]3CCCCO3)ncc2c1
    9, 10, -3.0, -0.4%, 0.1, -12
Cc1ccnc(NS(=O)(=O)c2ccc(NC(=O)C(C)(C)Oc3ccc(Cl)cc3)cc2)n1
    nt, -1, nt, -0.4%, 0.2, nt
COc1ccc(C)cc1NC(=O)Nc1ccc(Br)cn1
    3, -3, -0.4, nt, -0.5, -9
COC(=O)C1=C(C)NC(C)=C(C(=O)OC)C1c1ccc(-c2cc(Cl)ccc2Cl)o1
    1, -10, -2.1, 17%, 0.5, -2
CC(=O)c1cccc(NC(=O)c2nc(-c3ccccc3)n(-c3ccccc3C)n2)c1
    nt, -2, nt, -1.7%, 0.0, nt
CN1CCN(c2nc(-c3cccnc3)nc3ccccc23)CC1
    -5, -7, -1.3, 26%[38.3 µM], 1.0, -20
COc1ccc(CC(=O)NCc2nnc(SCC(=O)Nc3nccs3)n2-c2ccccc2)cc1
    0, 31, 3.0, 0.6%, 1.4, 5
Cc1[nH]c2ccccc2c1C(=O)C(=O)NCCCc1ccccc1
    3, -14, 1.3, 4.2%, 0.8, -3
NS(=O)(=O)c1ccc(CCNC(=O)CNC(=O)C2CCCCC2)cc1
    2, -6, 1.8, -1.6%, -0.5, -5
CCCc1cc2c(=O)c(-c3ccccn3)c(C)oc2cc1O
    3, -1, -3.3, nt, 1.8, -32
O=c1cc(CCl)nc2sc3ccccc3n12
    -11, 6, -1.5, 13%, -0.6, -3
CSCC[C@H](NC(=O)OC(C)(C)C)c1nnc(SCC(N)=O)o1
    6, 7, -0.4, 0.8%, -0.2, -15
O=C(CCC(=O)N(CC(=O)NC1CCCCC1)Cc1cccs1)Nc1ccccn1
    12, 10, -0.8, 0.4%, -0.6, -3
Cc1ccc(N(C)S(=O)(=O)c2csc(C(N)=O)c2)cc1C
    6, nt, 10, 1.4%, nt, 6
O=C(CSc1cc(Cl)ccc1Cl)NCCN1C(=O)CSC1=O
    4, -12, -3.2, -2.4%, -0.8, -3
CCN(CC)c1ccc(N=Cc2ccc(N(CC)CC)cc2O)cc1
    ?, 4, 0.1, ?, 2.4, 1
Cc1cccc(OCC(O)Cn2c(=N)n(CCN3CCOCC3)c3ccccc32)c1 (stereo unspecified)
    0, -2, -2.7, -1.5%, -0.4, -8
O=C(NCC(c1ccc(F)cc1)N1CCOCC1)c1ccccc1F (stereo unspecified)
    6, 39, -1.6, 0.2%, 1.0, -2
Cn1c(CNC(=O)CNC(=O)c2ccc(C(C)(C)C)cc2)cc(=O)n(C)c1=O
    4, -8, -0.4, 0.3%, -0.3, 0
Cc1cc(C)nc(N2CCC(C(=O)Nc3cccc(C(F)(F)F)c3)CC2)n1
    5, -14, 5.5, 2.1%, 2.1, -31
CC1CCN(C(=O)COC(=O)c2cc(Cl)cc(Cl)c2N)CC1
    21, 9, -1.3, 7.4%[38.3 µM], -0.5, -4
Cc1ccc(C)c(OCCC(=O)OCC(=O)NNC(=O)c2ccccc2)c1
    2, 3, 1.4, -0.1%, -0.6, -5
COc1cccc(C(=O)OCC(=O)NCCCc2ccccc2)c1
    1, 8, -6.1, 0.2%, 0.4, -12
CCCCOc1ccc(/C(O)=C2/C(=O)C(=O)N(CCCOC)C2c2ccncc2)cc1C (stereo unspecified)
    2, -20, 3.4, nt, 0.3, 14
CCOc1cc(S(=O)(=O)N2CCN(Cc3ccccc3)CC2)ccc1Br
    -5, -1, 0.1, 0.2%, 1.6, -30
Cc1ccc(C)c(Cn2c3ccccc3c3cnn(CC(=O)NCCCc4ccccc4)c(=O)c32)c1
    nt, ?, nt, 0.9%, 3.0, nt
Cc1ccc(Cl)cc1N1CCN(S(=O)(=O)c2cccc(S(=O)(=O)N3CCCC3)c2)CC1
    20, 59, -2.2, 1.8%, 0.7, -13
CCN(CC)c1nc2c(c(=O)[nH]c(=O)n2C)n1Cc1ccccc1Cl
    4, -4, -4.9, -0.1%, -1.0, -16
CCCCCCCCCCCCCCCC(=O)OC/C=C(C)/C=C/C=C(C)/C=C/C1=C(C)CCCC1(C)C
    1, 1, 0.5, 0.0%, -0.1, -1
COc1ccc(NC(=S)NC(=O)c2ccc3c(c2)OCCO3)cc1
    -28, 16, 0.1, 12%, 2.2, -14
CCOC(=O)c1ccc2nc(NC(=O)C(C)C)sc2c1
    2, 20, 2.0, 1.4%, -1.5, 6
CC(=O)NC1C(=O)N=C(SCC(=O)Nc2sc3c(c2C#N)CCCCCC3)NC1=O (stereo unspecified)
    -4, -6, -0.5, -1.9%, -0.1, -7
C=CCn1c(=O)c2c3c(sc2n2c(Nc4ccc(OC)cc4)nnc12)CCCC3
    -21, 19, 6.0, 3.0%, 3.6, ?
O=C(CCN1CCN(c2ccccc2F)CC1)Nc1ccc(F)cc1
    -2, nt, 3.4, 2.8%, nt, -75
O=C(NC1c2ccccc2-c2ccccc21)N1CCCCC1
    8, 12, -7.5, 1.6%, -1.0, -8
CCC(=O)N1CCc2cc(S(=O)(=O)NC(Cc3ccccc3)C(=O)NCc3cccc(OC)c3)ccc21 (stereo unspecified)
    nt, 16, nt, 0.5%, 1.8, nt
CC(=O)C1=C(C)OC(N)=C(C#N)C1c1cccnc1 (stereo unspecified)
    6, -1, -1.5, 1.7%, -0.1, 0
CC(C)(C)NC(=O)COc1ccc(CNc2ncn[nH]2)cc1
    11, -14, -3.0, -0.7%, -0.1, -5
CCOc1ccc(C2NC(=O)C(C#N)=C(S)N2c2ccc(C)cc2)cc1OC (stereo unspecified)
    -1, ?, -5.5, 1.8%, -0.2, -7
O=C(CCCCCN1C(=O)c2ccccc2C1=O)Nc1nccs1
    21, 14, -1.5, 0.6%, 0.6, -9
CCCCC1CCC(C(=O)OC(C)C(=O)Nc2ccc(NC(C)=O)cc2)CC1 (stereo unspecified)
    7, 8, 0.1, 4.0%, -0.9, 3
CC(=O)c1cccc(-n2c(=O)c3c4c(sc3n(CC(=O)c3ccccc3)c2=O)CN(C(C)=O)CC4)c1
    nt, -10, nt, 3.7%, -0.1, nt
Cc1ccc(-c2cc(C(F)F)n3ncc(C(=O)NCc4ccco4)c3n2)cc1
    -8, 12, -2.9, 6.9%, -0.4, -21
Cc1ccc(-c2nn3c(C)nnc3s2)cc1NC(=O)CSc1ccc(Cl)cc1
    1, -6, 0.5, ?, 1.0, -8
O=C(Cc1ccc(-n2c(=O)c3sccc3n(CC(=O)Nc3ccccc3F)c2=O)cc1)NCc1ccco1
    1, 38, -0.9, -0.1%, -0.3, -9
CCOc1ccc(-n2c(SCC(=O)Nc3cc(OC)c([N+](=O)[O-])cc3C)nc3ccccc32)cc1
    -9, 12, -1.2, 3.9%, 0.1, -4
CCOC(=O)Cc1nnn(CC(=O)OCC)n1
    10, 30, 1.5, -1.9%, -0.3, -4
COc1ccc(-n2c(=S)[nH]c3c(sc(=S)n3-c3ccccc3)c2=O)c(OC)c1
    -12, -7, -5.7, 1.5%, -0.5, -30
O=C(c1ccc(Br)o1)N1CCN(c2ccccn2)CC1
    -2, 0, -0.7, -1.3%, 1.6, -8
Cc1cccc(C)c1NC(=O)CNC(=O)CCC(=O)c1cccs1
    -2, -3, 2.0, -0.4%, -1.0, 3
O=C(O)c1ccccc1C(=O)c1ccc(F)c(F)c1
    2, nt, -5.5, -0.3%, nt, -9
O=C(CCSc1ccc(Cl)cc1)NCc1ccccn1
    -1, -4, 2.1, 0.1%, -1.2, 9
COC(=O)Nc1ccccc1C(=O)N1CCCCC1
    8, 23, -2.7, nt, -0.1, -19
CC(C)(C)OC(=O)NOCC(=O)N(CC(=O)c1ccccc1)Cc1ccccc1
    -1, 5, 1.5, -1.4%, -1.0, -2
COc1cc(SC)ccc1C(=O)N1CCCc2ccccc21
    -2, 18, -5.6, 1.2%, 1.2, -14

# Next records.
# Below each SMILES: Six1-Eya2 inh, TRPML1 blocker, D2 ag, PINK1 expr mod, TRPML1 agonist, D2 potentiator
CCc1ccc(NC(=O)CN2C(=O)CC(c3ccccc3)Sc3ccccc32)cc1 (stereo unspecified)
    nt, -10, nt, 0.5%, 3.8, nt
O=C(CS(=O)(=O)c1ccccc1)Nc1nnc(-c2cccs2)o1
    -21, -5, 1.9, 1.1%, -0.1, 3
O=C(Nc1cccc(S(=O)(=O)N2CCCCCC2)c1)c1cncc(Br)c1
    -18, 16, 1.7, 6.2%, 1.8, -5
CCOC(=O)N1CCc2c(sc3c2C(=O)NC(c2ccc(N(C)C)cc2)N3)C1 (stereo unspecified)
    nt, 16, nt, 7.9%, -0.6, nt
COc1cccc(OC)c1OCCOc1ccc(C(=O)c2ccccc2)cc1
    8, 32, 2.9, 1.0%, 4.9, 14
CCCC(=O)Nc1nc(C)c(-c2csc(Nc3cc(OC)ccc3OC)n2)s1
    -18, -5, 7.8, 1.3%, 0.1, -7
CCc1ccc(-c2nc(SCC(=O)N3CCOCC3)n[nH]2)cc1
    1, -10, 1.0, 0.4%, -0.2, -1

# Exported field by field: 3 of the compounds above
CCCC(=O)Nc1nc(C)c(-c2csc(Nc3cc(OC)ccc3OC)n2)s1
  Six1-Eya2 inh: -18	TRPML1 blocker: -5	D2 ag: 7.8	PINK1 expr mod: 1.3%	TRPML1 agonist: 0.1	D2 potentiator: -7

O=C(Nc1cccc(S(=O)(=O)N2CCCCCC2)c1)c1cncc(Br)c1
  Six1-Eya2 inh: -18	TRPML1 blocker: 16	D2 ag: 1.7	PINK1 expr mod: 6.2%	TRPML1 agonist: 1.8	D2 potentiator: -5

CCOC(=O)N1CCc2c(sc3c2C(=O)NC(c2ccc(N(C)C)cc2)N3)C1 (stereo unspecified)
  Six1-Eya2 inh: nt	TRPML1 blocker: 16	D2 ag: nt	PINK1 expr mod: 7.9%	TRPML1 agonist: -0.6	D2 potentiator: nt

# Bioassay records as filed in PubChem.
